RanGTP-Impb inh = inhibitors of RanGTP-importin-beta interaction, primary screen, biochemical, FRET, CFP-Ran, YFP-importin-beta, homogeneous | cell-free CFP-Ran/YFP-importin-beta FRET ratio | inhibition, % (no concentration beside the values) | hit rate 1.1% among 300,000 | AID 2216;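 active means most replicates above 15%; inconclusive means exactly half above 15%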;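 further: 0% = DMSO wells and 100% = Ran loaded with GDP instead of GTP; wells of about 40 µL received 100 nL stock; the first replicate is given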
UCH37 inh = human UCH37 deubiquitinating enzyme inhibition. inhibition, % (concentration not given with the values). purified proteasome/UCH37, Ub-AMC cleavage fluorescence. AID 588478. Q9Y5K5. hit rate 0.33% among 330,000;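 active means mean of two replicates above 20%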;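 further: 0% = compound-free wells with enzyme and 100% = wells lacking proteasome; stock transfer was 100 nL into about 20 µL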
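Material: Human UCH37 enzyme supplied as purified proteasome complex | Schedule: 30 min preincubation with enzyme, 25 min cleavage at room temperature | Detection: AMC fluorescence 355/460 nm | Measure: % inhibition of Ub-AMC cleavage fluorescence | Controls: Wells without proteasome as full block, compound-free enzyme plus substrate as uninhibited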
HNF4A DNA FP = change in binding of human HNF4 alpha to DNA; activity change, % at 10 µM; AID 1224865; HNF4a-FITC DNA binding, fluorescence polarization, 1 h; hit rate 0.3% among 360,000; in the data active means activity change above about 30%, passing the limit was not always enough;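 further: controls were the assay level and a saturating level of protein; the project sought stronger binding though the title names inhibitors; some compounds called inactive have numbers as strong as hits; positive values seem to mean higher polarization but the record does not say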
FGF22 binding = FGF22 (human) thermal shift binding; Q9HCT0; recombinant FGF22 thermal shift, SYPRO orange fluorescence; percent of sucrose octasulfate shift, DMSO zero; calls only at 9.99 µM; hit rate 1.5% among 340,000; AID 651658;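 active means melting point raised past a set limit in the mean and every replicate; inconclusive means no clear call; three in four hits are not shown here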
Target sequence (Q9HCT0 whole entry, looked up): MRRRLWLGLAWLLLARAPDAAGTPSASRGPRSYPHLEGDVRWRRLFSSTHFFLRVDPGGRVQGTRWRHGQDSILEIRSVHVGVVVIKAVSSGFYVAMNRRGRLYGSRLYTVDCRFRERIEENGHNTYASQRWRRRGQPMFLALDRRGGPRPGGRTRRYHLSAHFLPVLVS
Ecoli growth = E. coli growth inhibition; Escherichia coli growth, OD600, 23 h; stronger effect = lower value; hit rate 0.21% among 330,000; OD600 absorbance (no concentration beside the values);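 active means OD600 absorbance below the run mean of sample wells minus 3.6 SD, in any replicate, cut at about 0.56 in these data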;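 further: stock transfer was 300 nL into about 60 µL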
AF4-AF9 inh = MLL-AF4/AF9 protein interaction inhibition; P42568; AlphaScreen, biotin-AF4 peptide binding to FLAG-AF9; inhibition, % at 10 µM; hit rate 0.47% among 350,000;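 active means every replicate reaching a set inhibition limit, whatever the replicate mean, cut at about 25% in these data; inconclusive means mean inhibition reaches that limit but some replicates miss it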;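 further: 0% = plate neutral control median and 100% = total signal loss; the record names both 10 and 1 µM as test concentration; the first replicate is given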
Target sequence (P42568 whole entry, looked up): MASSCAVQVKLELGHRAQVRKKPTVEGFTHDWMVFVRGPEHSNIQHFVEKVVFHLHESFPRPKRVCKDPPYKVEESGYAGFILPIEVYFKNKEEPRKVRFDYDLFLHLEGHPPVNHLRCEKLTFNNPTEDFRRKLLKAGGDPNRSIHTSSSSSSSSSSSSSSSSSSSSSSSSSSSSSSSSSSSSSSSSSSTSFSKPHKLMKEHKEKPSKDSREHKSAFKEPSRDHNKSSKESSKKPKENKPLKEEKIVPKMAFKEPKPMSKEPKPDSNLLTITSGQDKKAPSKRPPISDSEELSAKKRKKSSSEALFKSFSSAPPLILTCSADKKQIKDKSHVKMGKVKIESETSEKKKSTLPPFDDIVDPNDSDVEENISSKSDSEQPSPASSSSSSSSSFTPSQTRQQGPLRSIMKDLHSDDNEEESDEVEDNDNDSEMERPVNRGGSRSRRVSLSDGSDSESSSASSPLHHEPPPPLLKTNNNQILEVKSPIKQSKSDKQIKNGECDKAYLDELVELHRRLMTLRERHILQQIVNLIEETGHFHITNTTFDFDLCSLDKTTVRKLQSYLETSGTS
Vif A3G = HIV-1 Vif–A3G interaction blockers – biochemical, TR-FRET, GST-Vif 1-94, biotin-A3G peptide, dose response retest, primary screen (AID 1117319) | TR-FRET GST-Vif / biotin-A3G peptide binding; higher % means a stronger effect; test concentration not given here; strong numbers were not always called active | one-dose inhibition, %; IC50 in µM for titrated hits | hit rate 0.57% among 260,000;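 active means above the screen mean plus three standard deviations and confirmed in dose response; inconclusive means results disagree or hit not tested in dose response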;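 further: Vif residues 1-94 fused to GST binding biotinylated APOBEC3G peptide 110-148; 0% = full assay without inhibitor and 100% = GST in place of GST-Vif; retest series ran down from 100 µM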
Numbers without * were called inactive; i = inactive; ? = inconclusive; / = not tested or not shown. This is a subset; the hit share may differ from the screen's.

SMILES	RanGTP-Impb inh	UCH37 inh	HNF4A DNA FP	FGF22 binding	Ecoli growth	AF4-AF9 inh	Vif A3G
CCOc1ccccc1OCCC(=O)OCC(=O)Nc1c(C)nn(-c2ccccc2)c1C	1.4	-1.0	-2.5	i	0.66	0.0	1%
Cc1ccc(NC(=O)Cn2c(O)c(N=NC(N)=S)c3ccccc32)cc1	-1.8	6.1	-0.5	i	0.72	-1.6	0%
COCCNC(=O)CN(C(=O)c1ccc(N2CCCC2)nc1)c1ccc(Cl)cc1	0.2	3.8	6.2	i	0.64	1.3	-13%
COc1ccc(CNC(=O)c2ccc(NC(=O)CC3SC(N4CCCC4)=NC3=O)cc2)cc1 (stereo not given)	-3.8	2.0	2.5	/	0.69	/	2%
CNC(=O)c1oc(-c2ccccc2)nc1C	-2.1	7.0	0.5	i	0.67	-0.4	-5%
O=C(C[C@H]1C/C=C\C[C@H](Cc2ccc(F)cc2)C(=O)OCCNC1=O)NCCO	/	6.1	2.3	i	/	0.5	/
COc1cc(/C=C2/C(=N)N3C(=NC2=O)SN=C3S(C)(=O)=O)ccc1OC(=O)c1ccco1	7.5	12	51*	i	0.69	-0.1	/
NC(=O)[C@@H]1CC2(CC(c3cccc(NC(=O)CC(c4ccccc4)c4ccccc4)c3)=NO2)CN1C(=O)COc1ccc(Cl)cc1 (stereo not given in full)	-1.5	0.1	-1.4	i	/	2.8	25%
CN(Cc1nc(-c2ccccn2)no1)S(=O)(=O)c1ccccc1	/	1.8	4.2	/	0.71	/	0%
Cc1ccc(C(=O)N/C(=C/c2ccco2)C(=O)NCCCn2ccnc2)cc1	1.8	1.1	-3.6	/	0.66	/	3%
O=C(CN1CCN(S(=O)(=O)c2ccccc2)CC1)Nc1ccccc1C(=O)NC1CC1	/	-1.9	1.6	i	0.69	2.2	0%
OC[C@H]1OC(Nc2ccc(N=Nc3ccccc3)cc2)[C@@H](O)[C@@H](O)[C@@H]1O (stereo not given in full)	-1.6	19	8.0	i	0.61	5.1	/
COc1ccc([N+](=O)[O-])cc1N/C(=N/S(=O)(=O)c1ccccc1)c1ccccc1	0.4	2.9	-1.3	i	0.64	2.3	-5%
CCN(CC)S(=O)(=O)c1ccc2oc(C(=O)O)c(C)c2c1	0.0	3.1	-1.1	/	0.73	/	?
CN(c1ccccc1)S(=O)(=O)c1ccc2[nH]c(=O)oc2c1	0.9	4.5	-2.9	i	0.68	-1.5	/
CCOC(=O)N1CCN(CC(=O)Nc2cc3c(cc2C(C)=O)OCO3)CC1	4.2	-25	-1.4	i	0.74	0.5	-2%
COc1ccc(C2C(C(=O)Nc3cccnc3)=C(C)Nc3nc(-c4cccs4)nn32)cc1 (stereo not given)	-2.1	3.9	-8.3	/	0.67	/	2%
COCCN1C[C@@H](CO)O[C@@H](n2cnc3c(NCCN(C)C)ncnc32)C1	/	/	-0.1	i	/	0.9	/
CC(=O)Nc1sc2c(c1C(=O)N1CCOCC1)CCCCC2	1.2	0.7	1.5	/	0.7	/	4%
CCN(CC)CCCNc1ccc(-c2nnc(-c3ccc(OCC(C)C)cc3)o2)cn1	3.9	/	4.6	i	/	15	31%
COc1ccc2oc(C(=O)NN3C(C)CCCC3C)c(C)c2c1 (stereo not given)	-1.5	1.2	-3.6	i	0.71	-1.3	-1%
CC(C)C(=O)N1CCN(c2ccccc2NC(=O)c2cccc(Cl)c2)CC1	-0.8	1.2	-0.6	/	0.75	/	-4%
COC(=O)c1cc(-c2cccc(OC)c2)on1	1.5	/	1.8	/	/	/	7%
Cn1c(SCC(=O)NCc2ccco2)nc2ccccc2c1=O	5.1	-0.1	-2.1	/	0.75	/	-3%
COc1ccccc1C(CC(=O)O)NS(=O)(=O)c1ccc2c(c1)N(C(C)=O)CC(C)O2 (stereo not given)	0.0	4.7	-2.9	i	0.73	0.1	/
CCC(C)(C)C1CCc2[nH]nc(C(=O)NN)c2C1 (stereo not given)	2.6	6.3	-0.3	i	0.63	-0.7	8%
O=C(O)c1cccc(NC(=S)N/N=C/c2ccccc2OCc2ccc(Br)cc2)c1	2.3	/	-4.8	i	/	1.5	19%
Cc1ccc(S(=O)(=O)CCC(=O)Nc2nnc(-c3ccco3)o2)cc1	4.7	8.4	-0.9	i	0.61	2.2	4%
COc1ccc(C(=O)NCC(=O)OCc2csc(-c3ccccc3)n2)cc1	1.5	3.6	-3.5	i	0.62	-4.1	-6%
CCOc1ccc(CCN2C(=O)C(=O)N([C@@H](Cc3ccc(O)cc3)CN3CCC[C@@H]3CN3C(=O)C(=O)NC[C@@H]3Cc3ccccc3)C[C@@H]2Cc2ccccc2)cc1	/	/	1.4	i	/	4.6	/
COc1cccc(C(C)N(C)Cc2nc(-c3ccoc3)oc2C)c1 (stereo not given)	-1.2	-0.7	-2.0	/	0.69	/	/
O=C(Cc1n[nH]c(=O)[nH]c1=O)N/N=C/c1cccc(Cl)c1	-3.3	/	2.7	i	/	2.6	33%
CCOC(=O)C(Cc1ccccc1)C(=O)NCc1cccnc1 (stereo not given)	-5.1	1.5	0.0	i	0.68	4.0	-6%
O=C(Nc1ccc2c(c1)OCO2)Nc1ccccn1	-1.3	-0.1	1.2	i	0.7	-2.5	-1%
Nc1c(C(=O)CCC(=O)O)oc2ccc(Cl)cc12	7.4	-3.5	1.0	i	0.77	-3.0	11%
CC(C)c1ccc(Nc2nc(Cl)nc(Cl)n2)cc1	?	0.2	0.2	i	0.71	-4.9	6%
O=C1C2C3CCCC3=C3CCCC3C2C(=O)N1c1ccccc1 (stereo not given)	-11	20	145	/	0.74	/	3.4µM*
Cc1ccc(S(=O)(=O)N(C)c2c(C)ccc(S(=O)(=O)N3CCN(C)CC3)c2C)cc1	-1.2	-1.0	0.6	i	0.66	4.7	-2%
CN1CCN(C(=O)CCN2C(=O)/C(=C\c3ccc(Cl)cc3)SC2=S)CC1	1.4	6.0	2.3	/	0.66	/	/
O=C(CN1C(=O)CSC1=O)N1CCCCC1	3.4	1.7	2.6	/	0.71	/	-3%

Vif A3G: what is marked active above
structure,RanGTP-Impb inh,UCH37 inh,HNF4A DNA FP,FGF22 binding,AF4-AF9 inh,Vif A3G
O=C1C2C3CCCC3=C3CCCC3C2C(=O)N1c1ccccc1 (stereo not given),-11,20,145,/,/,3.4µM*

Further entries follow.
SMILES	RanGTP-Impb inh	UCH37 inh	HNF4A DNA FP	FGF22 binding	Ecoli growth	AF4-AF9 inh	Vif A3G
Cc1ccccc1C1C(C#N)=C2N=C(N)c3c(sc4c3CCCCC4)N2C2=C1C(=O)CCC2 (stereo not given)	-15	2.0	-25	/	0.72	/	?
N#CC1=C(N)OC2=C(C(=O)CCC2)C1Cc1ccccc1 (stereo not given)	2.4	2.7	1.4	/	0.66	/	5%
Cc1cnc(NC(=O)CSc2ccccc2)s1	-3.5	-5.0	2.3	i	0.65	1.6	-1%
COC(=O)c1ccc(C(=O)OC)c(NC(=S)N2CCOCC2)c1	2.6	0.8	1.5	i	0.73	-3.9	-10%
O=C(CC1S/C(=N/N=C2CCCCCC2)NC1=O)Nc1ccc(Br)cc1F (stereo not given)	-1.8	4.6	1.4	i	0.74	-1.9	/
CN(C)C(=O)Oc1ccc[n+](C)c1	-2.1	0.4	-1.3	i	0.67	-0.7	-3%
O=S(=O)(c1ccc(Cl)cc1)N1CCN(S(=O)(=O)N2CCCCCC2)CC1	2.5	1.1	1.3	i	0.74	-0.7	1%
COCCNc1nnc(SCC(=O)Nc2sc3c(c2C(=O)c2ccccc2)CCCC3)s1	4.0	1.9	-0.1	i	0.68	9.2	7%
CSc1nc(C)c(CCO)c(=O)[nH]1	1.7	3.3	-4.8	i	0.66	-1.3	/
CCN1CCN(C(=O)C(C)Sc2nc3nc(C)cc(C)n3n2)CC1 (stereo not given)	/	-1.8	5.5	i	0.71	0.0	-1%
CCNC(=S)N=Nc1c(O)[nH]c2ccc([N+](=O)[O-])cc12	-2.0	4.9	2.4	i	0.64	2.4	/
COc1ccc(S(=O)(=O)N(C)C)cc1NC(=O)Cc1c[nH]c2ccccc12	2.3	1.0	-4.8	i	0.69	1.4	1%
CNCCOc1ccccc1C(C)(C)C	0.0	0.7	2.4	/	0.66	/	-4%
CCCCc1nnc(NC(=O)CCS(=O)(=O)c2ccc(Cl)cc2)s1	/	1.0	2.4	i	0.65	-2.3	-15%
O=C(Nc1ccc2c(c1)C(=O)N(CC1CCCO1)C2=O)c1ccc(Cl)c(Cl)c1 (stereo not given)	-1.5	-14	-3.5	/	0.71	/	-3%
O=C(CCSc1nnc2scc(-c3ccccc3)n12)NCc1ccc2c(c1)OCO2	-0.5	1.7	0.9	/	0.7	/	8%
CCCCn1nnnc1NCc1ccc(N(CC)CC)cc1	-1.8	4.9	1.0	/	0.66	/	8%
Cc1nn(C)c(C)c1NC(=O)CSc1nc(C2CC2)nc2c1cnn2-c1ccccc1	-4.2	1.6	2.3	/	0.74	/	1%
Cc1cc(C)n(C2CC(=O)N(c3cc(Cl)cc(Cl)c3)C2=O)n1 (stereo not given)	?	5.3	6.5	i	0.62	-6.6	/
CCN(CC)C(=O)NC1CCCCCCC1	-0.8	-1.1	-2.1	i	0.67	-0.6	-12%
Cc1cccc(C(=O)Nc2ccc(O)cc2C(=O)O)c1	0.7	4.1	1.9	/	0.67	13	9%
CC(C)Cc1nnc(NC(=O)CCC(=O)NCCc2ccc(Cl)cc2)s1	-0.8	3.4	0.7	i	0.72	-0.9	/
CCC(Oc1ccccc1)C(=O)NC1CCSC1=O (stereo not given)	-0.2	-1.1	-3.5	i	0.71	-0.4	-4%
NC(=O)C(=O)N/N=C/c1c(F)c(F)c(F)c(F)c1F	3.9	/	0.9	i	/	-6.0	11%
Cc1cc(N2C(=O)CC(Cc3ccc(Cl)cc3)C2=O)no1 (stereo not given)	1.4	0.3	-8.3	/	0.73	/	-7%
COc1ccc(S(=O)(=O)N2CCCCC2)cc1NC(=O)C1CC(=O)N(Cc2ccco2)C1 (stereo not given)	/	5.5	-3.9	i	0.68	2.9	6%
Fc1ccccc1CSc1nc2ncccc2[nH]1	0.5	0.1	3.4	/	0.58	/	-6%
Cc1ccc(-c2cc(C(=O)NCc3ccccn3)no2)cc1	4.2	3.5	-2.3	i	0.67	-19	?
